Compound activity (PubChem)
Polio RdRp inh: poliovirus RdRp elongation inhibitors, primary screen, biochemical, fluorescence polarization, total intensity; Genome polyprotein (Poliovirus type 1 (strain Mahoney)), P03300; poliovirus polymerase elongation; hits give low values; % elongation, % (compound at 16.7 µg/mL); 150,000 compounds, 0.66% hits; AID 588519, 2011; in the data active = % elongation below about 90%; also: some results filed as inactive read as strong as hits
Polio RdRp inh intensity: further read-out of Polio RdRp inh, marked with its call; % elongation; measured here: total intensity read-out; formula for this scale not given here;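 total fluorescence in place of polarization; lower means less elongation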
Active calls of the source: *. Only part of the results is shown (hit frequency here may not be typical).

How did COc1ccc(CCNc2nc(SCc3ccccc3Cl)nc3ccccc23)cc1OC do in these assays?
Polio RdRp inh: 100; Polio RdRp inh intensity: 106

What do the screens show for `O=C(NCc1ccco1)c1ccc2c(c1)N(Cc1cccc(Cl)c1)C(=O)c1ccccc1S2=O` (centres undefined)?
Polio RdRp inh: 101; Polio RdRp inh intensity: 108

What do the screens show for `CCN1CCN(CCCNC(=O)c2cc3c(s2)-c2c(C)cccc2OC3)CC1`?
Polio RdRp inh: 101; Polio RdRp inh intensity: 102

What do the screens show for `CCCNC(=O)C1CCC(Cn2c(=O)c3sccc3n(CC(=O)NCc3ccccc3)c2=O)CC1` (centres undefined)?
Polio RdRp inh: 113; Polio RdRp inh intensity: 104

What do the screens show for `COc1ccc(CNC(=O)C2CCCN(c3nnc(C)c4c(C)n(-c5ccc(C)cc5)nc34)C2)cc1` (centres undefined)?
Polio RdRp inh: 107; Polio RdRp inh intensity: 114

How did Cc1ccc(C)c(NC(=O)Cn2cc(C(=O)c3ccco3)c3ccccc32)c1 do in these assays?
Polio RdRp inh: 105; Polio RdRp inh intensity: 107

How did CCOCCCNC(=O)C(=O)Nc1c2c(nn1-c1ccc(OC)cc1)CSC2 do in these assays?
Polio RdRp inh: 102; Polio RdRp inh intensity: 104

How did CCc1nnc(NC(=O)CSc2nc3c([nH]c4ccccc43)c(=O)n2-c2ccc(OC)cc2)s1 do in these assays?
Polio RdRp inh: 107; Polio RdRp inh intensity: 95

How did COc1ccc(-n2ccn(CC(=O)Nc3ccc(C)c(C)c3)c(=O)c2=O)cc1OC do in these assays?
Polio RdRp inh: 105; Polio RdRp inh intensity: 111

What do the screens show for `CCOc1ccc(NC(=O)Cn2cc(C(=O)c3ccco3)c3ccccc32)cc1`?
Polio RdRp inh: 110; Polio RdRp inh intensity: 111

Ordered by formula weight (lowest first): six of the compounds above.
How did Cc1ccc(C)c(NC(=O)Cn2cc(C(=O)c3ccco3)c3ccccc32)c1 do in these assays?
Polio RdRp inh: 105; Polio RdRp inh intensity: 107

How did CCOCCCNC(=O)C(=O)Nc1c2c(nn1-c1ccc(OC)cc1)CSC2 do in these assays?
Polio RdRp inh: 102; Polio RdRp inh intensity: 104

How did COc1ccc(-n2ccn(CC(=O)Nc3ccc(C)c(C)c3)c(=O)c2=O)cc1OC do in these assays?
Polio RdRp inh: 105; Polio RdRp inh intensity: 111

What do the screens show for `COc1ccc(CNC(=O)C2CCCN(c3nnc(C)c4c(C)n(-c5ccc(C)cc5)nc34)C2)cc1` (centres undefined)?
Polio RdRp inh: 107; Polio RdRp inh intensity: 114

What do the screens show for `O=C(NCc1ccco1)c1ccc2c(c1)N(Cc1cccc(Cl)c1)C(=O)c1ccccc1S2=O` (centres undefined)?
Polio RdRp inh: 101; Polio RdRp inh intensity: 108

What do the screens show for `CCCNC(=O)C1CCC(Cn2c(=O)c3sccc3n(CC(=O)NCc3ccccc3)c2=O)CC1` (centres undefined)?
Polio RdRp inh: 113; Polio RdRp inh intensity: 104

New compounds follow
Results for O=C(CC1N=C2c3ccccc3N=C(SCc3ccc(F)cc3)N2C1=O)NC1CCCCC1 (centres undefined) ?
Polio RdRp inh: 119; Polio RdRp inh intensity: 121

How did CCOC(=O)N1CCc2c(sc3c2c(=O)n(Cc2ccccc2)c(=O)n3CC(=O)Nc2ccc(F)cc2)C1 do in these assays?
Polio RdRp inh: 104; Polio RdRp inh intensity: 110

How did Cc1[nH]n2c(=O)cc(-c3ccc(Cl)cc3)nc2c1-c1ccccc1 do in these assays?
Polio RdRp inh: 106; Polio RdRp inh intensity: 108

Results for COc1ccc(CC(=O)NCC(c2cccs2)S(=O)(=O)c2ccc(Cl)cc2)cc1 (centres undefined) ?
Polio RdRp inh: 105; Polio RdRp inh intensity: 117

What do the screens show for `COc1cc(C(c2c(C)[nH][nH]c2=O)c2c(C)[nH][nH]c2=O)ccc1OC(=O)c1ccccc1F`?
Polio RdRp inh: 105; Polio RdRp inh intensity: 89
